AmpC inh no det: AmpC beta-lactamase inhibition, detergent-free assay; P00811; AmpC nitrocefin hydrolysis, absorbance 480 nm, no detergent; potencies from a single point are estimates; Potency, µM (titrated, usually from 28.7 µM), for the others: at the top dose activity change, negative = inhibition; 71,000 tested, 1.8% active; active = falling curve, for most hits resting on a single point; inconclusive = weak or doubtful change; inactive = flat or rising curve; note: % of control where 0% means no effect; about half of the hits show no inhibition at the top dose; a quarter of the inactives give rising signals
Target sequence (P00811 whole entry, looked up): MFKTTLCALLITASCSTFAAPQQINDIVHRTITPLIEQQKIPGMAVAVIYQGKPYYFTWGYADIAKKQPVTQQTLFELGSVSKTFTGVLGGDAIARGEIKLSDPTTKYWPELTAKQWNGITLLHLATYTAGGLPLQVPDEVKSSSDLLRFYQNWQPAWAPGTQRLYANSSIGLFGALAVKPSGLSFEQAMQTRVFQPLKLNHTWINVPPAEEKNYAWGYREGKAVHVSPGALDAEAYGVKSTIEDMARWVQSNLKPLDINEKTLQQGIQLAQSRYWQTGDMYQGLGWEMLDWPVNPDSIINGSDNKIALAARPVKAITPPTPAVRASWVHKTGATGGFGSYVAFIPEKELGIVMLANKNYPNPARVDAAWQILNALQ
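AmpC in 20 mM phosphate buffer pH 7.0 was preincubated 15 min at room temperature with compounds. Nitrocefin (800 uM stock) was then added and hydrolysis followed at 480 nm every 20 s for 4 min.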
An asterisk follows results filed as active; ? = inconclusive; [ ] = dose if it differs, or a comment. Potency is the fitted concentration of half-maximal effect. Not all compounds are listed; the hit share may differ from the screen's.

#	SMILES	AmpC inh no det
1	Cn1c(=O)oc2cc(S(=O)(=O)NCCC(=O)N3CCc4ccccc4C3)ccc21	9.3%
2	COc1ccc(-c2ccc(-c3noc(-c4ccccc4OC)n3)c(OC)n2)cc1	18.7%
3	CC12CCC(c3c(C(=O)Nc4nccs4)nn(-c4ccccc4)c31)C2(C)C (stereo unspecified)	-0.4%
4	CCC(=O)Nc1ccc(NC(=O)CSc2nnnn2CC)cc1C	6.0%
5	O=C1CCCc2c1cc(C(=O)NCc1ccco1)c(=O)n2-c1ccc(Cl)cc1	76.5%
6	Cc1csc(NC(=O)CSc2nnc(-c3ccc(S(=O)(=O)N4CCCC4)cc3)o2)n1	29.1%
7	CCCCOC(=O)C(C)Nc1n[nH]c(=O)[nH]c1=O (stereo unspecified)	-0.4%
8	CCCCn1c(SCc2cccnc2)nc2c1c(=O)n(C)c(=O)n2C	43.0%
9	Cc1cc(NC(=O)c2c(F)c(F)c(F)c(F)c2F)no1	-6.9%
10	NC(=O)c1cc(-c2ccccc2)sc1NC(=O)Cc1ccc(S(=O)(=O)N2CCOCC2)s1	1.8%
11	CC/C=C\C/C=C\C/C=C\CCCCCCCC(=O)O	-16.8%
12	CCCCCc1c(C)nc(Nc2ccc(F)cc2)[nH]c1=O	2.9%
13	CN(C)c1ccc(CNC(=O)C2CCN(S(=O)(=O)c3ccc4c(c3)CCC(=O)N4)CC2)cc1	54.6%
14	O=C(O)[C@@H]1C[C@H]2C[C@@H](CP(=O)(O)O)CC[C@H]2CN1	23.9%
15	O=c1cnc2cnc(Nc3ccccc3)nc2n1CCc1ccccc1	23.0%
16	O=C(N/N=C\c1ccccc1O)c1ccccc1O	15.8µM*
17	CC1CN(C(=O)C(C)Sc2nc3ccccc3s2)CC(C)O1 (stereo unspecified)	51.4%
18	COc1cccc(NC(=O)CSc2nc3c(c(-c4ccco4)c2C#N)CCCC3)c1	-24.9%
19	Cn1c(NC(=O)C2c3ccccc3Oc3ccccc32)cc(=O)n(C)c1=O	70.0%
20	CCOc1ccc(N2CC(C(=O)NCCCN3CCOCC3)CC2=O)cc1 (stereo unspecified)	-0.5%
21	CC(C)[C@@]1(NC(=O)[C@H]2C[C@H]3c4cccc5[nH]cc(c45)C[C@@H]3N(C)C2)O[C@]2(O)[C@H]3CCCN3C(=O)[C@H](Cc3ccccc3)N2C1=O	128.0%
22	CC(=O)C(Sc1nc(N2CCOCC2)nc(N2CCOCC2)n1)C(=O)Nc1ccccc1 (stereo unspecified)	62.8%
23	Cc1nc(N)sc1-c1csc(Nc2ccccc2)n1	?
24	Cc1nc2ccc(S(=O)(=O)NCC(=O)N3CCOCC3)cc2s1	1.3%
25	CCC(=O)Nc1ccccc1-c1nnn(CC(=O)N2c3ccccc3CC2C)n1 (stereo unspecified)	10.6%
26	CCOc1ccc(C(=O)NCCCN(CC)CC)cc1	12.5%
27	CCOC(=O)COc1ccc(S(=O)(=O)N2CCN(c3ccccc3F)CC2)cc1	21.8%
28	CC(C)=CCC1=C(OCC(=O)O)C(=O)c2ccccc2C1=O	-7.5%[5.75 µM]
29	COc1ccccc1N1CCN(c2nc(N)c(C#N)c(CC#N)c2C#N)CC1	40.9%
30	CCOC(=O)c1ccc(NC(=O)C23CCC(C)(C(=O)O2)C3(C)C)cc1 (stereo unspecified)	42.2%
31	CCOc1ccc2[nH]c(=O)c(C(c3nnnn3CC3CCCO3)N3CCc4ccccc4C3)cc2c1 (stereo unspecified)	121.3%
32	CCOc1ccc(-c2nc(-c3ccccc3C)no2)cc1	-9.4%
33	c1ccc(-c2nnc3sc(CN4CCc5ccccc54)cn23)cc1	12.0%
34	O=C(COc1cccc(C(F)(F)F)c1)NCCCN1CCCC1=O	47.0%
35	Cc1cc(NC(=O)c2ccccc2)ncc1NC(=O)c1ccco1	-13.0%
36	COc1cccc(OC)c1C(=O)Nc1ccc(NC(=O)c2ccco2)cc1	3.7%
37	CCN1CCN(CC(=O)Nc2ccc3c(c2)OCO3)C(=O)C1=O	10.7%
38	CC(Sc1nnc2ccccn12)C(=O)Nc1ccc(Cl)cn1 (stereo unspecified)	-19.9%
39	Cc1ccc(C2CC(c3cccc(C)c3)n3ncnc3N2)cc1 (stereo unspecified)	52.0%
40	CNc1nc(-c2ccc(N(C)C)cc2)nc2ccccc12	12.0%

Copied from the list:
Reading for #33 in AmpC inh no det: 12.0%
Reading for #36 in AmpC inh no det: 3.7%
Reading for #38 in AmpC inh no det: -19.9%
Reading for #35 in AmpC inh no det: -13.0%
Reading for #37 in AmpC inh no det: 10.7%

Additional records:
#	SMILES	AmpC inh no det
41	c1ccc2c(c1)ncc1cccn12	6.5%
42	CC(C)c1ccc(NC(=O)C(c2ccccc2)N2CCOCC2)cc1 (stereo unspecified)	48.7%
43	COc1cc(-c2cc(=O)c3ccccc3o2)ccc1O	69.5%
44	O=C(CSc1nnc(-c2ccncc2)o1)Nc1ccccc1Cl	-4.2%
45	C=C(C)Cn1c(CCCNC(=O)C(C)(C)C)nc2ccccc21	47.6%
46	CCCCSc1cc(C)nc2ncnn12	5.4%
47	CCOC(=O)N1CCN(S(=O)(=O)N(C)C)CC1	-6.8%
48	OC(COCc1ccccc1)CN1CCN(c2ccccc2)CC1 (stereo unspecified)	13.0%
49	O=C1[C@H]2[C@@H](C(=O)N1c1cc(Cl)cc(Cl)c1)[C@]1(C(=O)Nc3ccccc31)N1CCC[C@@H]21	56.0%
50	O=C(C1CCN(c2nnc(-n3cccc3)s2)CC1)N1CCN(c2cccc(C(F)(F)F)c2)CC1	68.1%
51	COc1ccc(OC)c(-c2cc(C(=O)NCc3cccs3)no2)c1	-1.7%
52	COc1ccccc1CN(Cc1cc2cc(C)ccc2[nH]c1=O)Cc1nnnn1CC1CCCO1 (stereo unspecified)	125.9%
53	O=C(Cc1cc(=O)oc2cc(O)ccc12)NCC1CCC(C(=O)O)CC1 (stereo unspecified)	-5.4%
54	COC(=O)c1ccc(NC(=O)C2CCN(S(C)(=O)=O)CC2)cc1	8.4%
55	Cc1cnc(-c2nnc(N(C)C(=O)c3ccccn3)s2)cn1	0.1%
56	CC1(C)Cc2noc(N)c2C(C)(C)N1OC(=O)c1ccco1	-10.3%
57	CCOC(=O)C1=C(C)NC2=C(C(=O)CC(C)(C)C2)C1c1ccc2c(c1)CCCN2C (stereo unspecified)	50.4%
58	CCN(CC)c1ccc(N)cc1	4.1%
59	O=C(C1COc2ccccc2O1)N1CCCC1 (stereo unspecified)	0.6%
60	Cc1cccc2cc3c(NC(=O)CC(C)C)nn(C)c3nc12	4.6%
61	COc1ccccc1NC(=O)CSc1nnc(CC(=O)Nc2ccccc2)n1C	16.2%
62	CCOC(=O)Cn1c(-c2nonc2NC(=O)c2ccccc2F)nc2ccccc21	-16.2%
63	O=C(Cn1c(N2CCN(c3ccccc3)CC2)nc2ccccc21)c1ccccc1	30.2%
64	CCOC(=O)C(NC(=O)c1ccccc1OCC)(Nc1ncccn1)C(F)(F)F (stereo unspecified)	68.2%
65	CCCc1nc2c(o1)CC(CC(C)SCC)CC2=O (stereo unspecified)	30.2%
66	CCOc1c(C#N)c(C#N)c2nc(C)cc(C)n12	-0.3%
67	CC(C)NC(=O)C1CCN(C(=O)N(C)C)CC1	-6.5%
68	COc1ccc(NC(=O)CC(=O)Nc2ccc(OC)cc2OC)c(OC)c1	20.8%
69	O=c1[nH]c2ccccc2n1C1CCN(CCCC(c2ccc(F)cc2)c2ccc(F)cc2)CC1	17.6%
70	CCS(=O)(=O)n1nc(-c2ccc(OC)cc2)nc1SC	6.6%
71	COc1ccc(CNc2ncncc2-c2cccc(C#N)c2)c(OC)c1	58.6%
72	CCn1c(SCC(=O)N2CCCc3ccccc32)nnc1-c1c[nH]c2ccccc12	8.0%
73	O=C(O)CC1CCCC(c2ccccc2)C1=O (stereo unspecified)	8.5%
74	COc1cccc(Nc2ncc3nc(-c4ccc(F)cc4)c(=O)n(C)c3n2)c1	5.9%
75	O=C(c1ccco1)N1CCC(n2nnc3ccccc32)CC1	-3.3%
76	O=C(CSc1ccccc1Cl)c1ccco1	-9.7%
77	Cc1c(C)n(CC(O)CN2CCOCC2)c2ccccc12 (stereo unspecified)	122.4%
78	CCN(CC)CCCNc1oc(-c2cccc(Cl)c2)nc1C#N	22.3%
79	CC1=C(C(=O)OCC(C)C)C(c2cc3c(cc2Br)OCO3)NC(=O)N1C (stereo unspecified)	69.7%
80	CCOc1ccccc1N(C(=O)CNC(=O)c1ccco1)C(C(=O)NC(C)(C)C)c1ccncc1 (stereo unspecified)	45.4%
81	CC(=O)CC(=O)[C@@]1(O)CC[C@@H]2[C@@H]3C=C(C)C4=CC(=O)CC[C@@H]4[C@H]3CC[C@]21C	97.2%[12.8 µM]
82	CCOC(=O)N1CCC(NC(=O)Cn2ncn3c(cc4sc(CC)cc43)c2=O)CC1	14.8%
83	CCCn1c(C2CC(=O)N(c3cc(OC)ccc3OC)C2)nc2ccccc21 (stereo unspecified)	110.2%
84	C[C@H]1[C@H](NC(=O)/C(=N/OC(C)(C)C(=O)O)c2csc(N)n2)C(=O)N1S(=O)(=O)O (stereo in doubt)	0.000794µM*
85	CC1CCCCN1S(=O)(=O)c1ccc(C(=O)Nc2nnc(-c3ccccc3Cl)o2)cc1 (stereo unspecified)	-2.5%
86	O=C(CSc1ncnc2c1oc1ccccc12)N1CCc2ccccc2C1	1.0%
87	Cn1c(=O)c2c(ncn2CC(=O)Nc2nc(-c3ccccc3Cl)cs2)n(C)c1=O	40.0%
88	CS(=O)(=O)N1CCN(c2ccccc2NC(=O)Cc2ccc(Cl)cc2)CC1	7.9%

In another format: three of the compounds above.
[53] O=C(Cc1cc(=O)oc2cc(O)ccc12)NCC1CCC(C(=O)O)CC1 (stereo unspecified)
  AmpC inh no det = -5.4%
[54] COC(=O)c1ccc(NC(=O)C2CCN(S(C)(=O)=O)CC2)cc1
  AmpC inh no det = 8.4%
[55] Cc1cnc(-c2nnc(N(C)C(=O)c3ccccn3)s2)cn1
  AmpC inh no det = 0.1%

The listing continues:
#	SMILES	AmpC inh no det
89	COc1ccc(CSc2nnnn2Cc2ccccc2)cc1OC	36.5%
90	O=C(CCCc1c[nH]c2ccccc12)N1CCCCCC1	32.7%
91	O=C(Oc1cccnc1)c1cc2ccccc2oc1=O	12.6µM*
92	Cn1c(SCC2CCCCC2)nnc1-c1ccncc1	37.8%
93	O=C(CSc1nc(O)cc(=O)n1-c1ccccc1)NCc1ccccc1	-13.2%
94	c1ccc(C(c2ccccc2)N2CC3(CCNCC3)C2)cc1	35.7%
95	COc1ccc(C2CC(c3ccc(Cl)c(Cl)c3)Nc3nc(N)nn32)cc1 (stereo unspecified)	70.4%
96	CCc1nc(SCC(=O)Nc2cccc(C(F)(F)F)c2)c2c(=O)n(C)c(=O)n(C)c2n1	28.2%
97	Clc1cc2c(c(CSC3=NCN(CC4CC4)CN3)c1)OCOC2	-3.7%[5.75 µM]
98	O=C(COC(=O)c1cccc(C(=O)OCC(=O)NC2CCCCC2)n1)NC1CCCCC1	16.6%
99	Clc1ccc(-c2nnc3sc(-c4ccccn4)nn23)cc1	7.5%
100	CC(C)C[C@H](NC(=O)N1CCCCCC1)C(=O)N[C@H](Cc1cn(C)c2ccccc12)C(=O)N[C@H](Cc1ccccn1)C(=O)O	63.6%
101	Cc1sc2ncn3cnnc3c2c1C	-5.7%
102	COC(=O)C1=C(N)Oc2cc(C)n(Cc3cccnc3)c(=O)c2C1c1ccc(OC)c(OC)c1 (stereo unspecified)	49.5%
103	Cc1ccc(N(C(C)C(=O)N2CCCCC2)S(C)(=O)=O)cc1C (stereo unspecified)	24.9%
104	O=C(c1cn(CC(=O)N2CCCCC2)c2ccccc12)C1CC1	19.0%
105	C[C@]12CCC3c4ccc(O)cc4CCC3[C@@H]1CCC2=O (stereo partly specified)	-14.1%[12.8 µM]
106	Cc1cccc(Cl)c1NC[C@H](O)CN1CCN(C)CC1	-4.0%[5.75 µM]
107	C[C@H](CCC(=O)NN)[C@@H]1CC[C@@H]2[C@H]3CC[C@H]4C[C@@H](O)CC[C@@]4(C)[C@@H]3CC[C@]21C	-3.7%[5.75 µM]
108	C[C@@H](Cc1ccccc1)Nc1ncnc2c1ncn2[C@@H]1O[C@@H](CO)[C@H](O)[C@@H]1O	4.2%
109	CCN(CC)C(=O)CSc1nc2ncc(Cl)cc2[nH]1	-0.9%
110	CCn1c(C)c(C(C)=O)c(N2CCN(c3ccccn3)CC2)nc1=S	4.3%
111	CCc1cc(/C(Cc2ccc3ccccc3n2)=N\O)c(O)cc1O	-8.3%
112	CCN[C@@H]1C[C@H](C)S(=O)(=O)c2sc(S(N)(=O)=O)cc21	-7.7%[12.8 µM]
113	CN1CCN(CC(=O)C23CC4CC(CC(C4)C2)C3)CC1	-4.7%
114	Cc1nc2cc(S(=O)(=O)N(C)C)ccc2n1-c1ccccc1	36.9%
115	COC(=O)CNC(=O)c1c(-c2ccccc2Cl)noc1C	-6.8%
116	CCC(C)NC(=O)CCS(=O)(=O)c1ccc(Br)s1 (stereo unspecified)	-10.7%
117	Cc1cc(C)nc(SCNC(=O)c2ccc(F)cc2)n1	-9.3%
118	O=c1c(-c2ccc(Cl)cc2)nc2cnc(N3CCNCC3)nc2n1Cc1cccs1	67.7%
119	CCCOc1ccc(/C=c2\sc3nc(-c4ccco4)nn3c2=O)cc1OCC	35.2%
120	CCCC(=O)n1nc(-c2ccc(OC)cc2)nc1N	5.5%
121	CCn1c(SCC(N)=O)nnc1-c1cc2c(C)nn(-c3ccccc3)c2s1	115.3%
122	CCCN(CCC)CCc1ccc(O)c(O)c1	-14.6%
123	Cc1ccc(N2CCCn3c2nc2c3c(=O)n(CCN3CCOCC3)c(=O)n2C)cc1	36.0%
124	CN1C(=O)CC2(CC(=O)N(Cc3ccccc3)C2)C1=O (stereo unspecified)	9.5%
125	Cc1ccc(NC(=O)N2CCC(NC(=O)c3ccccc3C)CC2)cc1	-3.7%

Assay outcomes: PubChem, National Center for Advancing Translational Sciences (NCATS)
